Compound activity deposited in PubChem BioAssay by several laboratories.
YopH inh: YopH (Yersinia) phosphatase inhibition; actives 0.16% (n = 140,000); inhibition, %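 (about 10 µM by stock and volumes)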; fluorescence Ex485/Em525;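 active = inhibition of 50% or more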;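 also: controls were vehicle for no effect and minimum signal wells for full effect; inactives centre near -20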
RecA intein inh: Mtb RecA intein splicing inhibition. actives 0.75% (n = 290,000). cell-free RecA intein splicing, fluorescence. inhibition, %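 (about 9 µM by stock and volumes)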. P9WHJ3. AID 2221; in the data active = inhibition above about 30%; inconclusive = no clear call, values can overlap the other calls;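 also: 0% = vehicle wells and 100% = reference inhibitor control wells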
Target sequence (P9WHJ3 whole entry, looked up): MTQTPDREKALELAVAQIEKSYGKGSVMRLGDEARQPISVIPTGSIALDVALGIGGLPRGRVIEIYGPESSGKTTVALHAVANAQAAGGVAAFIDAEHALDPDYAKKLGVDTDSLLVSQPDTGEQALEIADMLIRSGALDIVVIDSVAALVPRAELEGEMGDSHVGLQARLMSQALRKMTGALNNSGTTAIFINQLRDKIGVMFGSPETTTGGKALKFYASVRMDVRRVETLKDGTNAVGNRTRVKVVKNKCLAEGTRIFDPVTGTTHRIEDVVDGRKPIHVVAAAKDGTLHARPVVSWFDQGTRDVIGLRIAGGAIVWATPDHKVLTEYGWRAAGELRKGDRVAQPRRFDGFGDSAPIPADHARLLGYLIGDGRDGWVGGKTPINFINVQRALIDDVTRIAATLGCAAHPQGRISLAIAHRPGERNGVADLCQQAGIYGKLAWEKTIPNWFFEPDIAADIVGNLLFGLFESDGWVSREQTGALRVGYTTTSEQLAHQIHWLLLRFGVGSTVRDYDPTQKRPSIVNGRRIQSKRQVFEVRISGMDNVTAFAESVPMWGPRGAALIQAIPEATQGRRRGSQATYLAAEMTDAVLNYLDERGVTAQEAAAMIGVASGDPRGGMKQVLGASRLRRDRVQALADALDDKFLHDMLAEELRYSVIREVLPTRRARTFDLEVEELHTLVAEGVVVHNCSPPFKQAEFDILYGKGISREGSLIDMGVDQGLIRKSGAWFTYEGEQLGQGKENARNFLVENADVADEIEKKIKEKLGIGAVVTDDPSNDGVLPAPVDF
Mtb growth: M. tuberculosis H37Rv growth inhibitors, H37Rv strain (AID 1626); M. tuberculosis H37Rv growth inhibition; higher % means a stronger effect; one-dose inhibition, % at 10 µM; IC50 in µM for titrated hits; actives 0.95% (n = 220,000);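 active = confirmed in a dose series; inconclusive = inhibition above 80% but not taken into the dose series; inactive = below 80% or under 30% at every dose of the series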;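 also: bacteria incubated seven days before Alamar blue readout; 0% = bacteria only wells and 100% = bacteria with antibiotic wells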
Mtb bLac sens: beta-lactam sensitization of Mtb H37Rv; actives 0.27% (n = 330,000); AID 434955; M. tuberculosis H37Rv growth with meropenem, percent inhibition; hits of this screen are not shown here; inhibition, % at 25 µM;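 active = about 74% or more and at least 40 points above the plate without the antibiotic, then above 30% in a dose series; inconclusive = first-round hits that could not be retested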;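 also: growth measured after seven days incubation then overnight dye step; 0% = bacteria only wells and 100% = bacteria with antibiotic; twin plates without the antibiotic show which effects depend on it; some results filed as inactive read as strong as hits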
Arbovirus inh: blocks arbovirus infection. arbovirus infection cell-based antiviral screen. inhibition, % at 10 µM. actives 0.37% (n = 200,000). AID 1251;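 active = inhibition from about 30%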;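 also: bluetongue infection of BSR cells; cell survival read as ATP light after 72 h; 0% = infected wells without compound and 100% = uninfected wells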
Numbers without * were called inactive; ? = inconclusive; . = no result given.

Codes: A = YopH inh; B = RecA intein inh; C = Mtb growth; D = Mtb bLac sens; E = Arbovirus inh
compound: CCOC(=O)/C=C/COc1ccccc1[N+](=O)[O-]
  A: . | B: 1.1 | C: -3% | D: -8 | E: 10

compound: C=CCN1C(=O)c2ccc(C(=O)N(C)CC(=O)Nc3ccc(OCC)c(OCC)c3)cc2C1=O
  A: . | B: 2.5 | C: . | D: -6 | E: .

compound: O=C(C1CC1)N1CCc2cc(S(=O)(=O)N3CCOCC3)ccc21
  A: -44 | B: 0.5 | C: 6% | D: 1 | E: 2

compound: Cc1cccc(OCC(O)CN2CCOCC2)c1 (stereo unspecified)
  A: . | B: 1.0 | C: . | D: -5 | E: .

compound: COc1ccc(OC)c(S(=O)(=O)N2CCC(C(=O)Nc3cc(C)ccc3C)CC2)c1
  A: -19 | B: 1.3 | C: -6% | D: -3 | E: 3

compound: Cc1ccsc1C(=O)NCc1ccc(F)cc1
  A: . | B: 0.6 | C: . | D: -3 | E: .

compound: O=C(Nc1ccc(NC(=O)C2CC2)nc1)c1cnccn1
  A: . | B: 0.3 | C: -2% | D: 11 | E: -2

compound: Cc1cc2ncn(-c3ncnc4sc(C)c(C)c34)c2cc1C
  A: -40 | B: 4.7 | C: -2% | D: 19 | E: 1

compound: Cc1ccnc(NC(=O)c2cccs2)c1
  A: 9 | B: -2.0 | C: 0% | D: -3 | E: -4

compound: COc1ccc(NC(=O)C2COc3ccccc3O2)cc1 (stereo unspecified)
  A: . | B: -4.7 | C: . | D: 2 | E: .

compound: Cc1ccc(C(=O)c2oc3nc(C)cc(C)c3c2N)cc1
  A: -128 | B: -7.8 | C: 1% | D: -14 | E: -2

compound: Cc1cc(C)nc(Sc2c(C)nn(-c3ccccc3)c2C)n1
  A: -42 | B: 0.7 | C: 8% | D: -6 | E: 0

compound: CC(=O)C1C(=O)c2c(cccc2[N+](=O)[O-])C1=Nc1ccccc1C (stereo unspecified)
  A: -7 | B: -4.2 | C: . | D: 10 | E: 0

compound: CCN1CCN(CCNC(=O)c2cn(C(C)c3ccccc3F)nn2)CC1 (stereo unspecified)
  A: -33 | B: 0.7 | C: 1% | D: -5 | E: -7

compound: CCCCC1CCC(c2ccc(C(N)=O)cc2)CC1 (stereo unspecified)
  A: -2 | B: -5.7 | C: 2% | D: -4 | E: -7

compound: Cn1c(SCC(=O)NC2(C#N)CCCCC2)nnc1-c1cccnc1
  A: . | B: 2.5 | C: . | D: ? | E: .

compound: O=C1C2CCCN2C(c2cccnc2)N1c1nccs1 (stereo unspecified)
  A: -44 | B: 0.3 | C: . | D: -6 | E: 6

compound: Cc1ccc(CNC(=O)c2ccc(NS(=O)(=O)c3c(C)noc3C)cc2)cc1
  A: -51 | B: -0.4 | C: . | D: -4 | E: 3

compound: CS(=O)(=O)N(CC(=O)NCCSC1CCCCC1)c1ccccc1
  A: . | B: -3.5 | C: 9% | D: -5 | E: 22

compound: Cc1cccc(C)c1NC(=O)C(C)N (stereo unspecified)
  A: . | B: -0.9 | C: -7% | D: -1 | E: .

compound: CC(C)(C)OC(=O)N1CCC(c2c(C(=O)O)cnn2-c2ccccc2)CC1
  A: -36 | B: 1.4 | C: -9% | D: -10 | E: 1

compound: COc1ccccc1-n1c(CNC(=O)c2ccc(S(=O)(=O)N3CCCCC3)cc2)n[nH]c1=S
  A: . | B: 2.2 | C: . | D: -2 | E: .

compound: COc1ccc(OCCN2CCOCC2)cc1
  A: . | B: 0.6 | C: . | D: -5 | E: .

compound: CCO[C@@H]1OC(C(=O)O)=C[C@H](c2cn(C(C)=O)c3ccccc23)[C@H]1CCCO
  A: . | B: 0.1 | C: -5% | D: -9 | E: .

compound: COc1ccc(CCNC(=O)c2cccc(NC(=O)CC3SC(N4CCCCC4)=NC3=O)c2)cc1OC (stereo unspecified)
  A: . | B: 0.3 | C: . | D: -13 | E: .

compound: COc1ccccc1CNC(=S)Nc1ccc(F)cc1
  A: . | B: 1.8 | C: . | D: 2 | E: .

compound: O=C(NCc1ccc2[nH]c3c(c2c1)CCCC3)c1ccc(S(=O)(=O)N2CCOCC2)cc1
  A: -11 | B: -25 | C: 8% | D: -10 | E: -6

compound: c1ccc(Sc2ncnc3c2oc2ccccc23)cc1
  A: -22 | B: 3.5 | C: 2% | D: 3 | E: -2

compound: Cn1ncc(C(=O)N=S(C)(=O)c2ccccc2)c1[N+](=O)[O-] (stereo unspecified)
  A: . | B: -0.4 | C: 3% | D: -4 | E: .

compound: COc1ccccc1CNC(=O)C1CC(=O)N(c2ccc(C)c(C)c2)C1 (stereo unspecified)
  A: -15 | B: -1.3 | C: 4% | D: -8 | E: 5

Single records (already shown). Order of screens: YopH inh | RecA intein inh | Mtb growth | Mtb bLac sens | Arbovirus inh
Cc1cccc(C)c1NC(=O)C(C)N (stereo unspecified) as listed: . | -0.9 | -7% | -1 | .
COc1ccccc1CNC(=S)Nc1ccc(F)cc1 as listed: . | 1.8 | . | 2 | .
CCN1CCN(CCNC(=O)c2cn(C(C)c3ccccc3F)nn2)CC1 (stereo unspecified) as listed: -33 | 0.7 | 1% | -5 | -7
CS(=O)(=O)N(CC(=O)NCCSC1CCCCC1)c1ccccc1 as listed: . | -3.5 | 9% | -5 | 22
O=C(C1CC1)N1CCc2cc(S(=O)(=O)N3CCOCC3)ccc21 as listed: -44 | 0.5 | 6% | 1 | 2

(list continues)
Codes: A = YopH inh; B = RecA intein inh; C = Mtb growth; D = Mtb bLac sens; E = Arbovirus inh
compound: O=C(c1ccco1)N1CCCC(c2ccccc2)C1 (stereo unspecified)
  A: -25 | B: 2.6 | C: -5% | D: 30 | E: -8

compound: O=C(NCCCN1CCOCC1)c1ccc(CNS(=O)(=O)c2ccc(F)cc2)cc1
  A: -40 | B: 0.8 | C: -7% | D: -4 | E: -8

compound: O=C1Nc2c(c(=O)[nH]c(=O)n2-c2ccc(F)cc2)C1(NS(=O)(=O)c1ccccc1)C(F)(F)F (stereo unspecified)
  A: . | B: -2.3 | C: 37% | D: -1 | E: .

compound: Cc1ccc(S(=O)(=O)Nc2cc3c(cc2C#N)OCO3)cc1C(N)=O
  A: . | B: -2.4 | C: . | D: -4 | E: .

compound: Cc1cc([N+](=O)[O-])cc([N+](=O)[O-])c1NCC(C)C
  A: . | B: -6.2 | C: -3% | D: 0 | E: -4

compound: C/C(CCC(C)C)=N\NC(=S)NCc1ccccc1
  A: . | B: 5.5 | C: 4% | D: 100 | E: -4

compound: Cc1nnc(C)n1N1C(=O)c2cccc3cccc(c23)C1=O
  A: -16 | B: -1.0 | C: . | D: -5 | E: 7

compound: CN(c1ccccc1)S(=O)(=O)c1cccc(NC(=O)CSc2nnc(N)s2)c1
  A: -16 | B: 0.6 | C: 3% | D: 4 | E: -1

compound: c1coc(-c2nnc3sc(-c4cccs4)nn23)c1
  A: 9 | B: . | C: -3% | D: 13 | E: 8

compound: Cc1cccc(-n2c(=O)[nH]c3c(C(N)=O)nc(CC(C)C)nc32)c1
  A: -15 | B: -3.2 | C: 2% | D: -7 | E: -4

compound: COc1ccc(NC(=O)CCN2C(=O)c3ccc([N+](=O)[O-])cc3C2=O)c(OC)c1
  A: -28 | B: -5.2 | C: -12% | D: -3 | E: 0

compound: CC(Sc1nc2ccccc2c(=O)n1CCc1ccc(S(N)(=O)=O)cc1)C(=O)NC(N)=O (stereo unspecified)
  A: . | B: 0.7 | C: . | D: -5 | E: .

compound: CCCc1c(C(=O)Nc2ccc(F)cc2C)cnn1-c1ccccc1
  A: . | B: . | C: 2% | D: -6 | E: .

compound: Cn1c(SCC(=O)Nc2cccc(S(=O)(=O)NC3=NCCCCC3)c2)nnc1-c1ccncc1
  A: . | B: . | C: 5% | D: 7 | E: -1

compound: Cc1cc(N/N=C/c2ccc(O)cc2O)nc(-c2ccccc2O)n1
  A: -12 | B: 26 | C: 6% | D: 11 | E: -29

Already shown: two of the compounds above.
Codes: A = YopH inh; B = RecA intein inh; C = Mtb growth; D = Mtb bLac sens; E = Arbovirus inh
compound: CCCc1c(C(=O)Nc2ccc(F)cc2C)cnn1-c1ccccc1
  A: . | B: . | C: 2% | D: -6 | E: .

compound: Cn1c(SCC(=O)Nc2cccc(S(=O)(=O)NC3=NCCCCC3)c2)nnc1-c1ccncc1
  A: . | B: . | C: 5% | D: 7 | E: -1

The results go on.
Codes: A = YopH inh; B = RecA intein inh; C = Mtb growth; D = Mtb bLac sens; E = Arbovirus inh
compound: O=C(/C=C/c1ccco1)Nc1nc(-c2ccccn2)cs1
  A: . | B: 0.4 | C: 0.45µM* | D: 92 | E: 1

compound: COCCNC(=S)N1CCN(C(c2ccccc2)c2ccccc2)CC1
  A: . | B: 1.4 | C: . | D: 3 | E: .

compound: COc1ccccc1NC(=O)c1cc2c(CO)cnc(C)c2oc1=Nc1ccc(OC)c(OC)c1
  A: . | B: 1.0 | C: . | D: 2 | E: .

compound: CCN(c1ccccc1C)S(=O)(=O)c1cc2c3c(c1)CCC(=O)N3CCC2
  A: . | B: -3.7 | C: . | D: -4 | E: .

compound: COc1ccc(CNC(=O)CCc2nc(-c3ccccc3F)no2)c(OC)c1
  A: -1 | B: -8.2 | C: -1% | D: -12 | E: -3

compound: Cc1cccc(OCC(=O)NNC(=O)CCCCC(=O)NNC(=O)COc2cccc(C)c2)c1
  A: . | B: -2.2 | C: . | D: 3 | E: .

compound: Cc1ccccc1OCc1occc1C(=O)Nc1cccc(-n2cnnn2)c1
  A: . | B: 2.3 | C: . | D: -5 | E: .

compound: CCc1nc2sc3ccccc3c(=O)c2c(=O)n1Cc1ccc(OC)cc1
  A: . | B: . | C: 6.2µM* | D: 94 | E: .

compound: O=S(=O)(c1ccc2c(c1)OCCO2)N1CCC(n2nnc3cc(C(F)(F)F)ccc32)CC1
  A: -13 | B: 8.3 | C: -4% | D: -7 | E: 5

compound: Cn1c(=O)n(C)c2cc(NC(=O)COc3ccc(F)cc3)ccc21
  A: . | B: -0.2 | C: . | D: -2 | E: .

compound: Cc1nc(N2CCN(C(=O)c3cnccn3)CC2)c2c3c(sc2n1)CC(C(C)(C)C)CC3 (stereo unspecified)
  A: . | B: 0.5 | C: . | D: -3 | E: .

compound: C=C(C)COc1ccc(-c2[nH]ncc2-c2ccc(OC)cc2)c(O)c1
  A: . | B: -3.4 | C: 17% | D: 2 | E: .

compound: O=C1c2ccccc2C(=O)N1CCCOc1ccccc1
  A: -16 | B: 5.1 | C: 2% | D: -11 | E: 0

compound: Cc1ccc(-n2ncc3c2CCCC3NC(=O)CCc2cnccn2)cc1C (stereo unspecified)
  A: . | B: -3.6 | C: . | D: -3 | E: .

compound: COc1ccc(OC)c2c(C)cc(N3CCN(C(=O)c4ccc(F)cc4)CC3)nc12
  A: -19 | B: 4.5 | C: 9% | D: 72 | E: -22

compound: COc1ccc(C2CC(C(F)(F)F)n3nc(C(=O)O)cc3N2)cc1OC (stereo unspecified)
  A: -51 | B: -2.8 | C: -7% | D: -23 | E: 3

compound: Cc1cc(C(=O)Cn2nnc(-c3ccc(Cl)cc3)n2)c(C)n1CC1CCCO1 (stereo unspecified)
  A: -46 | B: 0.4 | C: -5% | D: 3 | E: 7

compound: O=C(Nc1nc2ccccc2[nH]1)C1CCCO1 (stereo unspecified)
  A: -2 | B: 5.7 | C: 0% | D: -2 | E: -5

compound: COc1ccc(NC(=O)CSc2nc3ccncc3[nH]2)c(OC)c1
  A: . | B: -2.1 | C: . | D: 0 | E: .

compound: CCn1cc(C(=O)N(C)Cc2ccc(OC(F)F)cc2)c(=O)c2ccc(C)nc21
  A: . | B: -6.8 | C: . | D: -7 | E: .

compound: Clc1ccccc1-c1nc(-c2cccnc2)no1
  A: 10 | B: 2.5 | C: -12% | D: -3 | E: -2

compound: O=C(NC1CCCC1)C(c1ccc(F)cc1)N(C(=O)c1csnn1)C1CCCC1 (stereo unspecified)
  A: . | B: -2.3 | C: . | D: -11 | E: .

compound: CCn1c(SCC(=O)Nc2cc(C)c(Cl)cc2OC)nnc1-c1ccco1
  A: -21 | B: 1.0 | C: 2% | D: 2 | E: -12

compound: COc1ccc(/C=N/Nc2ccc([N+](=O)[O-])cc2)cc1Cn1cc([N+](=O)[O-])cn1
  A: -15 | B: 0.5 | C: 1% | D: 23 | E: -3

compound: CCOC(=O)C1C(=O)NC2(C)CC1c1cc(OC)ccc1O2 (stereo unspecified)
  A: -27 | B: -3.9 | C: -13% | D: 2 | E: 0

compound: O=C1NC(=S)SC1=C1CCCCCC1
  A: -49 | B: 1.6 | C: -3% | D: -3 | E: 15

compound: CCOC(=O)N1CCC(NC(=O)CS(=O)Cc2nc(-c3ccc(C)cc3)oc2C)CC1 (stereo unspecified)
  A: . | B: -0.3 | C: . | D: 2 | E: .

compound: CCCSCCCNC(=O)Cn1nc(CC)n2c(cc3c(OC)cccc32)c1=O
  A: . | B: -0.9 | C: . | D: 9 | E: .

compound: COc1cccc(/C=N/Nc2ccc(C(=O)O)cc2)c1O
  A: . | B: -1.1 | C: 3% | D: -8 | E: -8

compound: CC1=NNC(=O)C1C(c1ccccc1)C(C#N)C#N (stereo unspecified)
  A: -2 | B: 80* | C: -6% | D: 2 | E: -1

This is a subset (hit frequency here may not be typical).
